rRNA inh HTS = reduced GFP signal of wild-type E. coli, primary screen, bacterial rRNA inhibitor project, GFP/RFP fluorescence, OD600, single point; E. coli WT GFP vs humanized-ribosome RFP mutants, 24 h; stronger effect = lower value; DMSO median 0, no signal -100; GFP signal change (wild-type ribosome), % (no concentration beside the values); hit rate 1.6% among 350,000;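 active = significant combined selectivity score with lowered wild-type GFP, culture density cut under 30%, mutant RFP and density less affected; inactive = any of these conditions unmet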; note: one replicate is shown; some compounds called inactive have numbers as strong as hits
Vif TR-FRET = inhibitors of Vif binding to APOBEC3G peptide, primary screen, biochemical, TR-FRET, GST-Vif 1-94, biotin-A3G peptide, dose response retest (AID 1117319); Virion infectivity factor (Human immunodeficiency virus type 1 group M subtype B (isolate …; TR-FRET GST-Vif / biotin-A3G peptide binding; higher % means a stronger effect; test concentration not given here; strong numbers were not always called active; inhibition, %, or IC50 in µM where a hit was titrated; hit rate 0.57% among 260,000;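 active = above the screen mean plus three standard deviations and confirmed in dose response; inconclusive = results disagree or hit not tested in dose response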;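 note: Vif residues 1-94 fused to GST binding biotinylated APOBEC3G peptide 110-148; 0% = full assay without inhibitor and 100% = GST in place of GST-Vif; retest series ran down from 100 µM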
MLL AF4-AF9 inh = inhibitors of AF4 peptide binding to AF9, primary screen, biochemical, AlphaScreen, biotin-AF4 peptide, FLAG-AF9, single point. hit rate 0.47% among 350,000. AID 651704, 2012. inhibition, % at 10 µM;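 active = every replicate reaching a set inhibition limit, whatever the replicate mean, cut at about 25% in these data; inconclusive = mean inhibition reaches that limit but some replicates miss it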;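 note: 0% = plate neutral control median and 100% = total signal loss; the record names both 10 and 1 µM as test concentration; the first replicate is given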
Target sequence (P42568 whole entry, looked up): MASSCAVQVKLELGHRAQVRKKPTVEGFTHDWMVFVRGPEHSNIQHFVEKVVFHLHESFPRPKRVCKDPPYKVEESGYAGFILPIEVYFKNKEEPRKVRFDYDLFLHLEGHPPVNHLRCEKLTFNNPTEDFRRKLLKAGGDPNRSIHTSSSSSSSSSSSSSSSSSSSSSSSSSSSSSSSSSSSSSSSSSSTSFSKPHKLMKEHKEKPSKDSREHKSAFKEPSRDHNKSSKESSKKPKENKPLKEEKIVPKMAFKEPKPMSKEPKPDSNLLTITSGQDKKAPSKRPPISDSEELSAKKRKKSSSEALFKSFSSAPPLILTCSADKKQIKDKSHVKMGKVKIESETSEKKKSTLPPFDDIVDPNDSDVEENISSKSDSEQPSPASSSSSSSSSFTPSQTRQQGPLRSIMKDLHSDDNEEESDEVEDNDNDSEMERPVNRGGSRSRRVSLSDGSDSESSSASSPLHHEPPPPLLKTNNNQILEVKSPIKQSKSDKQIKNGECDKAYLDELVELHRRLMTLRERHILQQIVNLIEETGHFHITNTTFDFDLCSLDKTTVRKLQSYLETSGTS
rRNA inh HTS OD600 = recorded beside rRNA inh HTS, whose call it bears; OD600 change, %; measured here: OD600 growth;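 optical density of the mix in the first replicate; 0 = DMSO median and -100 = no signal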
rRNA inh HTS RFP = further read-out of rRNA inh HTS, marked with its call; RFP signal change, %; measured here: RFP humanized mutant strains;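 first replicate; 0 = DMSO median and -100 = no signal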
An asterisk follows results filed as active; u = inconclusive; x = no result given; & = joins results of further samples. This is a subset; rates above refer to the full screens.

Value order: rRNA inh HTS OD600, Vif TR-FRET, MLL AF4-AF9 inh, rRNA inh HTS RFP, rRNA inh HTS
NCC[C@H](O)C(=O)N[C@@H]1C[C@H](N)[C@@H](O[C@H]2O[C@H](CN)[C@@H](O)[C@H](O)[C@H]2O)[C@H](O)[C@H]1O[C@H]1O[C@H](CO)[C@@H](O)[C@H](N)[C@H]1O
  x, u, 62*, x, x
Cn1nnc2c(C(N)=O)ncn2c1=O
  x, -5%, -2.8, x, x
O=C1OCC/C1=C\NCCCCCCCCN/C=C1\CCOC1=O
  x, 6%, 1.5, x, x
Cc1ccc(C)c(S(=O)(=O)N2CCN(C(=O)c3ccccn3)CC2)c1
  x, 1%, -3.7, x, x
COc1ccc(NC(=O)N(C)[C@H]2C[C@H]3c4[nH]c5ccccc5c4CCN3C[C@H]2[C@H](C)O)cc1
  x, -4%, 4.3, x, x
CC(C)=CCC/C(C)=C/CNC(=O)C[C@H]1C[C@H](C(=O)N2CCCCC2)[C@@]2(CCc3ccccc3)c3[nH]c4cc(CCC(=O)N(C)C)ccc4c3CCN2C1=O
  x, 3%, -4.8, x, x
CCN(CC)CCCNC(=O)CNC(=O)c1nn(-c2ccc(OC)cc2OC)c(=O)c2ccccc12
  x, -1%, -5.0, x, x
CCN(CC)C(=O)C1=C(C)N(CCC2=CCCCC2)C(=O)C(CC(=O)NCCN2CCOCC2)C1 (configuration not stated)
  x, 0%, 0.8, x, x
Cc1ccc(NC2C(=O)NC(=O)NC2=O)cc1
  x, 4%, -1.7, x, x
Cc1cc(=O)[nH]c(NNC(=O)c2ccc(Cl)cc2)n1
  x, 1%, -1.3, x, x
COc1ccc(C(C)C)cc1S(=O)(=O)Nc1cccnc1
  x, -3%, 1.9, x, x
COc1cc(N)c2ncccc2c1Cl
  x, -6%, 3.6, x, x
NC(=O)C1C2CCC(C2)C1C(N)=O (configuration not stated)
  x, -5%, 0.2, x, x
O=C1CCN(CC2CCCCC2)C=C1C(=O)c1ccccc1
  x, -6%, -2.5, x, x
COc1ccc(CNCCCn2cnc3c(SC)ncnc32)cc1
  x, 3%, -3.0, x, x
CC(=O)Nc1c(Cl)cc2c(c1Cl)Cc1cc(N)ccc1-2
  x, 0%, 4.8, x, x
Clc1ccc2c(c1)-c1ccccc1C1=NCCN12
  x, 0%, 0.5, x, x
CCC[C@@H]1C[C@@H](C(=O)N[C@H]([C@@H](C)O)[C@H]2O[C@H](SC)[C@H](O)[C@@H](O)C2O)N(C)C1 (some centres not stated)
  x, u, -4.8, x, x
O=C(COC(=O)c1ccc(F)cc1F)Nc1ccc2c(c1)OCO2
  x, 2%, -3.0, x, x
Cc1nn(-c2ccccc2)c(C)c1C(=O)OCC(=O)Nc1ccccc1Cl
  x, -3%, -8.5, x, x
CC1(C)CN(C2CCCCC2)C(=O)[C@H]1CC(=O)Nc1ccccc1
  x, -2%, -0.4, x, x
O=C(CSc1nnc(COc2ccc(Cl)cc2)o1)N(c1ccccc1)C1CCS(=O)(=O)C1 (configuration not stated)
  x, 2%, -2.0, x, x
C=C1C(=O)O[C@H]2[C@H]1[C@H](OC(=O)/C(C)=C\C)C[C@]1(CO1)[C@@H]1[C@H](OC(C)=O)C=C(C)[C@]21O
  x, 27%, -2.8, x, x
C#CCN(C[C@@H]1[C@@H](OC(=O)NC2CC2)[C@@H](OC(=O)NC2CC2)Cn2c(=O)ccc(=O)n21)S(=O)(=O)c1ccc(C)cc1
  x, -1%, -4.0, x, x
Cc1cc(C)cc(OCC(=O)NNC(=O)CC(C)c2ccccc2)c1 (configuration not stated)
  x, -2%, 1.9, x, x
CCN(CC(=O)Nc1cccc(OC)c1)C(=O)C1CC(=O)N(Cc2ccccc2Cl)C1 (configuration not stated)
  x, 0%, -6.6, x, x
O=C1OC(c2ccc(O)cc2)(c2ccccc2O)c2ccccc21 (configuration not stated)
  x, 10%, 3.2, x, x
CC1=C(C(=O)N(C)C)CC(CC(=O)NCC2CCCCC2)C(=O)N1CCC1=CCCCC1 (configuration not stated)
  x, 1%, -4.6, x, x
Cc1cc(O)c(C(C)C)cc1NC(=S)Nc1cc(C(C)C)c(O)cc1C
  x, 4%, 6.3, x, x
CN(C(=O)Nc1ccc(F)cc1)[C@H]1C[C@H]2c3[nH]c4ccccc4c3CCN2C(=O)[C@H]1CO
  x, 0%, -0.1, x, x

Some of these compounds in order of length of the SMILES, lowest first.
Value order: rRNA inh HTS OD600, Vif TR-FRET, MLL AF4-AF9 inh, rRNA inh HTS RFP, rRNA inh HTS
NC(=O)C1C2CCC(C2)C1C(N)=O (configuration not stated)
  x, -5%, 0.2, x, x
Cc1ccc(NC2C(=O)NC(=O)NC2=O)cc1
  x, 4%, -1.7, x, x
Clc1ccc2c(c1)-c1ccccc1C1=NCCN12
  x, 0%, 0.5, x, x
COc1ccc(CNCCCn2cnc3c(SC)ncnc32)cc1
  x, 3%, -3.0, x, x
O=C1CCN(CC2CCCCC2)C=C1C(=O)c1ccccc1
  x, -6%, -2.5, x, x
CC(=O)Nc1c(Cl)cc2c(c1Cl)Cc1cc(N)ccc1-2
  x, 0%, 4.8, x, x
Cc1nn(-c2ccccc2)c(C)c1C(=O)OCC(=O)Nc1ccccc1Cl
  x, -3%, -8.5, x, x
Cc1ccc(C)c(S(=O)(=O)N2CCN(C(=O)c3ccccn3)CC2)c1
  x, 1%, -3.7, x, x
CC1=C(C(=O)N(C)C)CC(CC(=O)NCC2CCCCC2)C(=O)N1CCC1=CCCCC1 (configuration not stated)
  x, 1%, -4.6, x, x
CCN(CC)CCCNC(=O)CNC(=O)c1nn(-c2ccc(OC)cc2OC)c(=O)c2ccccc12
  x, -1%, -5.0, x, x
CCN(CC)C(=O)C1=C(C)N(CCC2=CCCCC2)C(=O)C(CC(=O)NCCN2CCOCC2)C1 (configuration not stated)
  x, 0%, 0.8, x, x
C=C1C(=O)O[C@H]2[C@H]1[C@H](OC(=O)/C(C)=C\C)C[C@]1(CO1)[C@@H]1[C@H](OC(C)=O)C=C(C)[C@]21O
  x, 27%, -2.8, x, x

Next compounds.
Value order: rRNA inh HTS OD600, Vif TR-FRET, MLL AF4-AF9 inh, rRNA inh HTS RFP, rRNA inh HTS
COC(=O)C(c1ccccc1)C(CC(=O)c1ccccc1)c1ccccc1 (configuration not stated)
  x, -3%, -1.8, x, x
COCCN(C(=O)COC(=O)c1ccc2c(c1)OCO2)c1c(N)n(Cc2ccccc2)c(=O)[nH]c1=O
  x, 1%, -3.5, x, x
CCN(CC)CCNc1cccc2sc3ccccc3c(=O)c12
  x, -7%, 29*, x, x
c1ccc2nc(N3CCCC3)c(N3CCCCC3)nc2c1
  x, -9%, -2.0, x, x
O=[N+]([O-])c1ccc(C=CC=Cc2ccccc2)cc1
  x, -2%, 0.3, x, x
O=C(COC(=O)C1=COCCO1)NCc1ccc(Cl)cc1Cl
  x, -1%, -12, x, x
CC1N=C(SCC(=O)c2ccc(F)cc2)N2C(C)N=C(SCC(=O)c3ccc(F)cc3)N12 (configuration not stated)
  x, 12%, -10, x, x
CN(C)C(CNC(=O)c1cccc(S(=O)(=O)N2CCc3ccccc3C2)c1)c1ccccc1 (configuration not stated)
  x, -2%, 0.0, x, x
Cc1ccccc1NC(=O)Cc1nc(COC(=O)c2ccc(S(C)(=O)=O)c([N+](=O)[O-])c2)cs1
  6, 5%, x, -0.8, -4
FCc1nc2nc(Cl)c(Cl)nc2[nH]1
  -10, 4%, -0.9, 3.6, 2
COc1cc[n+]([O-])cc1[N+](=O)[O-]
  2.2*, 1%, 3.0, 0.3*, 1.2*
c1ccc2c(c1)C1=NCCN1c1ccccc1-2
  -60, 0%, 0.2, -6.5, -23
CC(C(=O)NCc1cccs1)N1CCN(S(=O)(=O)c2ccc3c(c2)OCCCO3)CC1 (configuration not stated)
  -9, 4%, 1.0, 2.0, -6
COc1ccc(C2CC(=O)Oc3cc(OC)c(OC)c(OC)c32)cc1 (configuration not stated)
  -3, 0%, 0.6, 0.5, -9
O=C(C1CCCCC1)N1C[C@@H](n2cc(-c3ccc(F)cc3)nn2)[C@H](O)C[C@@H]1c1ccc(Cl)cc1
  -26, -3%, -2.4, 21, -13
CC(C)(C)S(=O)N1Cc2cc(CO)cc(CCO)c2[C@@H]1CCO (some centres not stated)
  6, -6%, -1.5, 3.6, 9
N#Cc1ccccc1S(=O)(=O)N1CCN(c2nc(-c3cccnc3)nc3ccccc23)CC1
  1, -4%, 0.3, 1.9, 8
NC(=O)C12C(=O)NC(=O)C1(C(=O)O)C21CCCC1 (configuration not stated)
  16, -3%, -2.1, -4.2, 8
C[C@@H]1CN([C@H](C)CO)C(=O)CCCn2cc(nn2)CO[C@H]1CN(C)C(=O)Nc1ccnc(N2CCOCC2)c1
  9&0, 2%, -1.0&-0.5, 0.9&1.4, 4&2
COc1ccc2c(Cl)cc(NC(=O)Nc3c(C)cccc3C)nc2c1
  10, -16%, -1.4, 0.4, 1
Clc1ccc2nc(-c3ccccc3)nc(C(Cl)Cl)c2c1
  11, 5%, -6.1, 0.8, 16
CCCCC1=C(C(=O)OCC)C(C(=O)OCC)Oc2ccccc21 (configuration not stated)
  -3, -7%, 3.3, 1.4, -3
COc1ccc(C(CC(=O)c2ccc(C)cc2)Sc2ccccc2N)cc1 (configuration not stated)
  -23, -5%, u, -8.6, 1
O=C1CCC(C(=O)N2CCN(c3ccccc3)CC2)CN1Cc1ccc(Cl)cc1 (configuration not stated)
  -20, 4%, 0.2, -0.8, 7
CCCCN(C(=O)C1CC(=O)N(c2ccc(C)cc2)C1)c1c(N)n(CCC)c(=O)[nH]c1=O (configuration not stated)
  6, 9%, -13, 0.9, 4
Cc1c(Cl)cnc(NC(=O)COC(=O)[C@H](C)NC(=O)c2ccccc2)c1Cl
  13, 24%, -0.2, 4.9, 8
CC(=O)C1C=CC(C)(C(=O)O)C2C=C(C)C(=O)C(C)(O)C12 (configuration not stated)
  9, -14%, 2.1, 1.0, 13
O=C(O)c1cccc2c1-c1c(cccc1[N+](=O)[O-])C2
  -2, -3%, 0.2, -5.0, -14
O=C1C=CC(=O)c2c(O)c(CO)c(CO)c(O)c21
  33, 0.47µM*, 3.5, 22, -18
CC(C)C[C@H]1CN([C@@H](CC(C)C)CN2CCCC2CN2C(=S)NC[C@@H]2Cc2ccc(O)cc2)C(=S)N1CC1CCCCC1 (some centres not stated)
  16, 4%, 6.5, 9.7, 7
Cc1csc(=O)n1CC(=O)Nc1ccc(C(C)C)cc1
  1, 5%, 2.8, -2.2, -2
CCCC(C(=O)Nc1ccc(S(=O)(=O)Nc2nccs2)cc1)c1ccccc1 (configuration not stated)
  0, 6%, -1.9, -1.2, 0
CC(=O)Nc1sc(C)c(C)c1C(=O)OCC(=O)NC(C)c1ccccc1 (configuration not stated)
  11, 0%, -3.0, 1.0, 0
Cc1ccc(S(=O)(=O)N2CC3(O)CN(C(=O)OC(C)C)N(C(=O)OC(C)C)CC3(OC(=O)NCC3CCCCC3)C2)cc1 (configuration not stated)
  3, 6%, -1.6, -1.4, -7
COc1ccc(CNC(=O)O[C@]23C[C@H]4C(=O)N(c5ccccc5)C(=O)[C@H]4C[C@@]2(O)CN(S(=O)(=O)c2ccc(C)cc2)C3)cc1OC
  -12, -6%, -1.5, 1.5, 5
CN(CCc1ccccc1)C(=O)CC1C(=O)NCCN1Cc1ccccn1 (configuration not stated)
  6, -4%, 3.2, 8.0, 13
Cc1ccccc1-c1nc(S(=O)(=O)c2ccccc2)c(NCCN2CCOCC2)o1
  -6, -7%, 1.4, -5.3, -1
Cc1cc2[nH]c3c4ccccc4nc(C)c3c2cc1C
  -80, 1%, 7.5, -13, -58
CN(C(=O)COC(=O)Cc1ccc(Br)cc1)c1c(N)n(Cc2ccccc2)c(=O)[nH]c1=O
  11, 1%, 1.0, 2.3, 6

Single records, as listed above. Values in the order: rRNA inh HTS OD600, Vif TR-FRET, MLL AF4-AF9 inh, rRNA inh HTS RFP, rRNA inh HTS
Entry for Clc1ccc2nc(-c3ccccc3)nc(C(Cl)Cl)c2c1 : 11, 5%, -6.1, 0.8, 16
Entry for CC(=O)C1C=CC(C)(C(=O)O)C2C=C(C)C(=O)C(C)(O)C12 (configuration not stated) : 9, -14%, 2.1, 1.0, 13

Screens as filed in PubChem.
